Screening data (PubChem)
2A Renilla: lowers the Renilla signal of an FMDV 2A StopGo reporter. HEK cells with a luciferase reporter of 2A StopGo recoding. Potency, µM (doses to about 57.5 µM), inactives show top-dose signal change, negative = less light. 120,000 compounds, 0.32% hits. AID 1745857; active means well fitted falling curve with a large enough effect; inconclusive means small, poorly fitted or top-dose-only effect; inactive means no such curve, though single readings can be large or run the other way; also: nearly all actives have a fitted effect of over 55% in size; overnight with compound
2A firefly: lowers the firefly signal of an FMDV 2A StopGo reporter | Potency, µM (top dose mostly 57.5 µM), for the others: at the top dose signal change, negative = less light | HEK cells with a luciferase reporter of 2A StopGo recoding | 120,000 compounds, 0.23% hits | AID 1745856; active = well fitted falling curve with a large enough effect; inconclusive = small, poorly fitted or top-dose-only effect; inactive = no such curve, though single readings can be large or run the other way; also: nearly all actives have a fitted effect of over 60% in size; overnight with compound
Active calls of the source: *; ? = inconclusive; & = joins results of further samples; [ ] = remark or other dose. % is scaled to controls: 0 for no effect and ±100 for the full control effect; potency is read from the fitted curve at half-maximal effect.

Compound,2A Renilla,2A firefly
COc1ccccc1C(=O)NC(=O)Nc1ccc(-n2nc(C(F)(F)F)cc2C(F)(F)F)cc1,-8%,-8%
O=c1n(Cc2ccccc2Cl)c2ccccc2c2nc(-c3ccccc3)nn12,-3%,3%
O=Cc1cc(Cl)c(OCc2ccc(C(=O)O)cc2)c(Cl)c1,-2%,23%
Cc1ccc(C(=O)COC(=O)c2cc3ccccc3oc2=O)cc1,-1%,19%
Cc1nonc1NC(=O)COc1ccc(C(C)(C)C)cc1,-6%,210%[activator]
CCOC(=O)COc1cc(OCc2ccccc2)c2c(=O)cc(-c3ccccc3)oc2c1,-9%,-6%
CCn1c2ccccc2c2cc(CNC34CC5CC(CC(C5)C3)C4)ccc21,4%[1.06 µM],-2%
CN(C)C(CNC(=O)CCc1ncc(-c2ccccc2)o1)c1ccco1 (configuration not stated),-8%,0%
COc1ccc(-n2nc(C(=O)Nc3ccc(Br)cc3C)c3c4ccccc4n(C)c3c2=O)cc1,10%,-19%
COc1ccc2c(c1)CC(NC(=O)Nc1cc(Cl)ccc1OC)CO2 (configuration not stated),-7%,-22%
Oc1ccc2ccccc2c1C=NCCc1ccccc1,3%,58%[activator]
Cc1c(F)cc(C(N)=O)cc1NS(=O)(=O)c1cc(F)ccc1F,58%[activator],-6%
CCCOc1ccc(C(N)C(=O)OCC)cc1 (configuration not stated),-14%,5%
C=C(Br)CNCc1ccccc1,-5%,7%
COc1ccc(CNC(=O)CN2N=C(c3ccc(Cl)cc3)CCC2=O)cc1,-10%,-5%
CCNC(=O)Cn1cnc2c(c(C)c(C)n2-c2ccc(Cl)cc2)c1=O,-15%,-6%
COc1cc(C(=O)Oc2ccc3c(=O)c(Oc4cccc(C)c4)coc3c2)cc(OC)c1OC,2%,0%
COc1ccc(-c2nn3c(c2C)NC(=O)CC3C(=O)Nc2ccc(C)cc2)cc1 (configuration not stated),2%,17%
Cc1cccc(N2CCN(Cc3ncc(-c4ccccc4)o3)CC2)c1C,-9%,36%[activator]
CCOc1ccccc1NC(=O)CCc1nc(-c2ccc(C)n(C(C)C)c2=O)no1,10%,13%
O=C(NCCSc1c[nH]c2ccccc12)c1ccc(Cl)cc1,-11%,-4%
Cn1c(=O)c2c(nc(N3CCN(C(=O)c4ccccc4)CC3)n2Cc2ccccc2)n(C)c1=O,2%,13%
CCOc1ccc(C(C)=O)cc1COC(=O)C(C)NC(=O)c1ccccc1 (configuration not stated),0%,-5%
O=C(N/N=C1/CCc2ccccc21)c1ccc(F)cc1,-4%[1.06 µM],4%
CC(N)c1ccc(OC(F)F)cc1 (configuration not stated),14%,7%
CC1CCc2noc(NC(=O)COc3ccc(C(C)C)cc3)c2C1 (configuration not stated),-4%,19%
CCNC(=O)NC(=O)CSc1cc(C)c2cc(C)cc(C)c2n1,8%,0%
CC(=O)c1cccc(NC(=O)c2sc3nc4c(cc3c2N)CCCC4)c1,-6%,90%[activator]
CCOC(=O)c1ccc(NC(=O)N2CCOc3ccccc32)cc1,-11%,40%[activator]
CCOc1ccccc1NC(=O)C1=C(C)Nc2ncnn2C1c1ccccn1 (configuration not stated),-6%,-6%
Cc1ccc(CNS(=O)(=O)c2cnc(N)nc2)cc1,0%,6%
Cn1cc(C(=O)NCCNS(=O)(=O)c2ccccc2)c2ccccc21,24%,5%
Cc1ccc2c(C)c(C(=O)N3CCC(c4nc5ccccc5s4)CC3)oc2c1C,?,?
CC(CCc1ccccc1)NC(C)C(O)c1ccc(O)cc1 (configuration not stated),-4%,-4%[11.5 µM]
Cc1nn(-c2nc3c(c(=O)n(Cc4cccc(Cl)c4)c(=O)n3C)n2C(C)C)c(C)c1C,-22%,-6%
O=C(CN(c1ccccc1)S(=O)(=O)c1ccccc1)NCC1CCCO1 (configuration not stated),0%,23%
COc1cccc(CSc2nc(-c3ccccc3F)nc3c2Cc2c(CO)cnc(C)c2O3)c1,-13%,-20%
Cc1ccc(CCC(=O)NCCCN2CCCC2)cc1,-8%,-7%
CCOc1ccc(C(=O)N2c3ccccc3NC(=O)C2CC(=O)Nc2cccc(C(F)(F)F)c2)cc1 (configuration not stated),13%,-18%
CCn1c(SCC(=O)Nc2nncs2)nnc1C1CCCC1,-8%,4%
CSc1ncc(Cl)c(C(=O)N(Cc2ccccc2Cl)C2CCS(=O)(=O)C2)n1 (configuration not stated),-11%,-19%
COc1ccc(Cl)cc1NC(=O)CCC(=O)c1ccc(C)cc1,-10%,-9%
Cc1ccc(CCC2CCN(C(=O)c3n[nH]c(=O)c4ccccc34)CC2)cc1,?,?
CN(C(=O)Nc1cn(C)c(=O)c2ccccc12)c1ccccc1,-10%,-15%
COc1ccccc1N1CCN(C(=O)c2c(C)oc3ncn(C)c(=O)c23)CC1,2%,7%
Cc1ccc(NS(=O)(=O)c2cc(-c3cnc(C)o3)ccc2C)c(Cl)c1,240%[activator],1%
CC(=O)N1c2c(cc(Br)cc2S(=O)(=O)N2CCN(c3ccccc3)CC2)CC1C (configuration not stated),3%,2%
O=C(CN1CCN(C(=O)c2cc(-c3ccc(F)cc3)n[nH]2)CC1)N1CCCC1,-7%,6%
COc1ccc(C)cc1NC(=O)CCc1c(C)nn(-c2ccc(N3CCOCC3)nn2)c1C,-6%,43%[activator]
COc1cccc2cc(-c3nnc(-c4ccc(Cl)cc4)o3)c(=O)oc12,-8%,0%

Next part.
Compound,2A Renilla,2A firefly
CCCCN(Cc1ccccc1)c1ccc(NS(=O)(=O)c2cc(C)ccc2C)cc1C(=O)O,138%[activator],13%
CCC(C(=O)Nc1cccc(-c2nc3cccnc3s2)c1C)c1ccccc1 (configuration not stated),-4%,13%
COC(=O)c1ccccc1NC(=O)C1=C(C)C(=O)OC12CCCCCC2,9%,-1%
O=C(C1CN(C(=O)c2ccc(F)cc2F)c2ccccc2O1)N1CCOCC1 (configuration not stated),7%,12%
COc1ccc(C2C(C(=O)Nc3ccccc3OC)=C(C)Nc3c(C(=O)Nc4ccccc4)cnn32)c(OC)c1 (configuration not stated),-11%,-27%
CN(C)C(CNC(=S)NC1CC2CCC1C2)c1cccs1 (configuration not stated),209%[activator],12%
CCCNc1c(NC(=O)Nc2ccc(CC)cc2)c(=O)oc2ccccc12,23%,79%[activator]
CCCCc1ccc(C(=O)c2c(N)c(C(=O)Nc3cccc(OC)c3)c3ccccn23)cc1,-14%,-9%
Cc1ccc(Sc2ccc(NC(=O)c3cccc4ccccc34)cc2)c(C)c1,24%,0%
Cc1ccc(COc2ccc(C=O)cc2)cc1,8%,95%[activator]
COc1ccc(CCNC(=O)c2cnc3sc(N4CCOCC4)nn3c2=O)cc1OC,-10%,-13%
Cc1ccc(O)c([C@H](CCN(C(C)C)C(C)C)c2ccccc2)c1,-10%,-14%[11.5 µM]
CC(C)(C)c1ccc(C(=O)NCc2cc(=O)n3nc(-c4ccccc4)sc3n2)cc1,6%,0%
CCCCC1CCC(C(=O)N2CC(=O)Nc3ccc(C)cc3C2c2ccc(F)cc2)CC1 (configuration not stated),-10%,-16%
COCCN1C(=O)c2ccccc2C(C(=O)Nc2ccccc2)C12CCCC2 (configuration not stated),-7%,11%
COc1ccc(CNC(=O)CSc2ncc(S(=O)(=O)c3ccc(C)c(Cl)c3)c(=O)[nH]2)cc1,-7%,-2%
O=C(NCc1ccccc1Cl)c1cc2cccc3c2n1CCS3,0%,-7%
Cc1cc(NC(=O)c2ccc(-c3ccc(Br)cc3)o2)cc(-c2nc3ncccc3o2)c1O,-7%,-3%
O=c1[nH]c(SCc2ccc(C(F)(F)F)cc2)nc2c1cnn2CCO,?,?
COC(=O)c1cc(-c2ccco2)nc2ccccc12,-11%,-3%
O=C(O)Cc1ccc2c(c1)[nH]c1ccc(Br)cc12,5%,7%
Cc1nn(-c2ccc3nncn3n2)c(C)c1CCC(=O)Nc1ccc(OC(F)(F)F)cc1,5%,14%
Cc1ccccc1N1C(=O)CC(c2c[nH]c3ccccc23)C1=O (configuration not stated),-2%,-4%
Cc1ccc(S(=O)(=O)C(CNC(=O)C(=O)NCCc2ccc(F)cc2)c2cccs2)cc1 (configuration not stated),-26%,-27%
COc1ccc(OC)c(COC(=O)c2cc(OC)ccc2Br)c1,40%[activator],19%

Two entries drawn at random from those above, as already listed:
Compound,2A Renilla,2A firefly
O=C(NCc1ccccc1Cl)c1cc2cccc3c2n1CCS3,0%,-7%
Cc1ccc(S(=O)(=O)C(CNC(=O)C(=O)NCCc2ccc(F)cc2)c2cccs2)cc1 (configuration not stated),-26%,-27%

New compounds follow:
Compound,2A Renilla,2A firefly
COc1ccc(CNC(=O)Cn2c(=O)cc(-c3ccccc3)c3c(C)nn(C)c32)cc1,-13%,-17%
COc1ccc2nc(SCC(=O)c3c(C)[nH]c4ccccc34)nc(C)c2c1,-8%,-8%
CCCCc1ccc(-c2csc(-c3nc(-c4ccc(CC)cc4)c(C)s3)n2)cc1,8%,0%
COc1cccc(-c2cnc(NCc3ccccc3Cl)n2C)c1,0%,0%
CCc1ccc(S(=O)(=O)c2nnn(-c3ccc(F)cc3)c2N)cc1,0%,-21%
O=C(C1CCC1)N(CCc1ccccc1)Cc1ccncc1,-6%,7%
Cc1ccccc1NCc1cccn1-c1nnc(N2CCOCC2)s1,?,?
CCCNC(=O)c1ccc2nc(-c3ccc(C)cc3)cc(OCC)c2c1,15%,6%
COc1ccc(N2CCN(C(c3ccccc3)c3nnc(-c4ccccc4Cl)o3)CC2)cc1 (configuration not stated),81%[activator],0%
CCCn1nc(C(=O)N(CCOC)Cc2nc3ccccc3c(=O)[nH]2)c2ccccc2c1=O,1%,9%
Cc1ccc(CNC(=O)c2nc(S(=O)(=O)Cc3ccc(C)cc3)ncc2Cl)cc1,-1%&-12%,24%&-6%
Cc1oc2ncnc(N3CCOCC3)c2c1C(=O)Nc1ccc(Br)cc1F,-13%,-9%
Cc1ccc2c(Cl)cc(Cl)c(OCC(=O)NC(C)(C#N)C3CC3)c2n1 (configuration not stated),0%,-5%
COc1ccc(CCNC(=O)c2nc(SCc3ccc(C)cc3)ncc2Cl)cc1OC,-1%,-9%
Cc1cc(C)cc(NC(=O)Cn2c(=O)n(CCC(C)C)c(=O)c3cccnc32)c1,-9%,-6%
CCOc1ccc(CCNC(=O)Cn2nc(CC)n3c(cc4c(OC)cccc43)c2=O)cc1OCC,2%,4%
CCOc1ccc(C2CC(c3c(O)n(C4CCCCC4)c(=O)[nH]c3=O)=Nc3ccccc3S2)cc1 (configuration not stated),-15%,-15%
O=C(CCNS(=O)(=O)c1ccccc1)NC1CCCCCC1,8%,20%
COc1ccc(OC)c(/C=C(\C#N)c2nc3ccccc3c(=O)[nH]2)c1,1%,-9%
CCCc1nnc(NC(=O)Nc2ccccc2Cl)s1,15%,127%[activator]
CCc1ccc(-c2csc(Nc3ccc(S(N)(=O)=O)cc3)n2)cc1,?,-27%
Cc1nc2nc(C)c(NC(=O)Nc3cccc(C(F)(F)F)c3)c(=O)n2[nH]1,3%,11%
CC(NC(=O)c1cc(-c2cccs2)nc2ccccc12)C(C)(C)C (configuration not stated),5%,9%
Cc1ccc(S(=O)(=O)N2CCOCC2)cc1NC(=O)CSc1nc(C)c(C)n1C1CCCC1,?,-15%
N#Cc1c(NCCO)nc(-c2ccco2)c2c1CCCC2,-12%,-12%

Brought forward from above: 3 entries; new compounds follow.
Compound,2A Renilla,2A firefly
CC(NC(=O)c1cc(-c2cccs2)nc2ccccc12)C(C)(C)C (configuration not stated),5%,9%
Cc1ccc(S(=O)(=O)N2CCOCC2)cc1NC(=O)CSc1nc(C)c(C)n1C1CCCC1,?,-15%
N#Cc1c(NCCO)nc(-c2ccco2)c2c1CCCC2,-12%,-12%
COc1ccccc1C(=O)Nc1cnc2sc3c(n2c1=O)CCCC3,-10%,0%
Cc1cccc(NC(=O)C(C)(C)c2ccc(Cl)cc2)n1,-1%,-9%
Cc1cccc(-c2cc(C(=O)N3CCN(c4ncccn4)CC3)c3ccccc3n2)c1,27%,129%[activator]
O=C(Nc1cccc(Cl)c1Cl)c1cc(S(=O)(=O)NCCc2ccccc2)ccc1F,300%[activator],0%
Cc1cccc(C(=O)NC(Nc2cccc3ccccc23)C(Cl)(Cl)Cl)c1 (configuration not stated),-4%,19%
O=[N+]([O-])C(=C(Sc1ccccc1)Sc1ccccc1)/C(Cl)=C(/Cl)Br,?,?
CCN(CC)S(=O)(=O)c1cccc(NCc2ccccc2C#N)c1,162%[activator],-13%
Cc1cccc(C(=O)N2CCC(=O)CC2)c1,-6%,12%
CCC(CC)c1nnc(NC(=O)c2cc(=O)[nH]c3ccccc23)s1,16%,23%
CCSc1nc(N)c(C#N)c(CC)c1C#N,6%,13%
Cn1c(=O)c(=O)n(C)c2cc(S(=O)(=O)CCC(=O)Nc3cccc(C(F)(F)F)c3)ccc21,5%,4%

Whole records as entered above:
`Cc1cccc(C(=O)NC(Nc2cccc3ccccc23)C(Cl)(Cl)Cl)c1` (configuration not stated) is entered as 2A Renilla = -4%; 2A firefly = 19%
`Cc1cccc(-c2cc(C(=O)N3CCN(c4ncccn4)CC3)c3ccccc3n2)c1` is entered as 2A Renilla = 27%; 2A firefly = 129%[activator]

A portion of the library; the hit share may differ from the screen's.
